Screening results from PubChem BioAssay.
Bead autofluor – counter-screen for toxin protease inhibitors: compound fluorescence | compound autofluorescence counterscreen, microsphere flow cytometry; hits give high values | fluorescence intensity (test concentration not listed) | 3.1% of 360,000 active | AID 624483;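 active = at least 3 SD above the mean of all compounds, about 16000 in these data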;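 note: 100 nL of 1 mM stock went into each well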
BJeLR viability – BJeLR cell viability loss; AID 1554; 0.17% of 300,000 active; BJeLR (HRASV12) viability, CellTiter-Glo ATP luminescence, 48 h; reference of the scale not given here; inhibition, % (no concentration beside the values);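 active = replicate mean above 50%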;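 note: 50 nL library stock added to about 25 µL; numbers are from one replicate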
Sa RN4220 lethal – S. aureus RN4220 growth inhibition; OD600, 16 h; inhibition, % (concentration not given with the values); 0.33% of 330,000 active;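 active = z-score of -3 or lower and OD600 up to 0.18 on both plates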;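 note: plate controls were untreated cells for no effect and reference antibiotic for full effect; stock transfer was 100 nL into about 80 µL; one replicate is shown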
Mtb hypoxia rep – inhibitors of hypoxia-regulated fluorescent reporter in Mycobacterium tuberculosis | M. tuberculosis hypoxia-regulated fluorescent reporter, fluorescence | fluorescence inhibition, % (concentration not given with the values) | 0.1% of 300,000 active;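 active = 35 to 45% if threefold the growth effect, above 45% if 1.5-fold the growth effect; inactive = the rest, general growth blockers included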;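 note: wells of about 50 µL received 100 nL stock; 0% = vehicle wells and 100% = reference inhibitor wells; whole bacteria with a GFP reporter of the hypoxia response; strong numbers were not always called active; many hits fall short of the cut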
PrP UTR inh – suppresses PrP 5' UTR mRNA reporter expression | cell-based PrP 5' UTR mRNA reporter, plate reader | inhibition, % (concentration not given with the values) | 0.35% of 340,000 active;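 active = every replicate at 50% or more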;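 note: 0 = median of the neutral control wells; tested in H4 reporter cells; numbers are from one replicate; inactives centre near -14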
Sa ugtP lethal – compounds lethal to S. aureus RN4220 ugtP deletion mutant. AID 1259309. OD600 growth, 16 h; some inactives read as strong as hits. 0.54% of 330,000 active. growth inhibition, % (test concentration not listed);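 active = z-score under -3 and OD600 up to 0.15 on both plates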;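 note: plate controls were untreated wells for no effect and antibiotic for full effect; wells of about 80 µL received 100 nL stock; the first replicate is given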
Mtb hypoxia rep growth – also measured in Mtb hypoxia rep; calls as there; growth inhibition, %; measured here: M. tuberculosis growth (absorbance);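 0% = vehicle and 100% = reference antibiotic; read after six days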
Active calls of the source: *; · = not tested or not shown. This is a random part of the collection; overall some 4% were active at least once.

Letters: A = Bead autofluor; B = BJeLR viability; C = Sa RN4220 lethal; D = Mtb hypoxia rep; E = Mtb hypoxia rep growth; F = PrP UTR inh; G = Sa ugtP lethal
> CCN1CCN(C(CNS(=O)(=O)c2ccc(F)cc2)c2cccnc2)CC1 (stereo not given)
  A: 6082	B: 4	C: 3.6	D: 13	E: 10	F: -13	G: 8

> Cc1noc(/C=C/NCc2cccnc2)c1S(=O)(=O)N(C)CC(=O)N1CCc2ccccc21
  A: 6704	B: -2	C: -3.1	D: 1	E: 0	F: -8	G: 4

> COc1ccc(NC(=O)COC(=O)c2ccc3ccccc3n2)cc1
  A: 3823	B: ·	C: -0.2	D: -10	E: 2	F: -4	G: -4

> COc1ccccc1N1N=C(c2ccc([N+](=O)[O-])cc2)CC1c1ccccc1 (stereo not given)
  A: 16503*	B: 3	C: ·	D: ·	E: ·	F: -12	G: ·

> COc1ccc(-c2csc3nc(-c4ccccc4OC)oc(=O)c23)cc1
  A: 2780	B: ·	C: 0.7	D: 16	E: 5	F: -26	G: 1

> O=c1[nH]c(=S)ccn1C1OC(CO)C(O)C1O (stereo not given)
  A: 4973	B: -1	C: 3.3	D: ·	E: ·	F: -6	G: 5

> CCCCN(C)CCNC(=O)c1cc2c(-c3cccc(OC)c3)nn(C)c2s1
  A: 4003	B: 2	C: -1.5	D: -1	E: -1	F: 13	G: -1

> O=C(c1cccs1)N1CCN=C1SCc1cccnc1
  A: 3865	B: 5	C: 0.7	D: ·	E: ·	F: -1	G: 12

> COC(=O)c1nnn(-c2nc(N3CCOCC3)nc(N3CCOCC3)n2)c1C
  A: 3272	B: -7	C: 14	D: 12	E: 9	F: 2	G: -73

> Cc1nnc(SCC(=O)NCCc2ccccc2)s1
  A: 2063	B: -2	C: 5.0	D: 13	E: 4	F: -8	G: 5

(listing goes on)
Letters: A = Bead autofluor; B = BJeLR viability; C = Sa RN4220 lethal; D = Mtb hypoxia rep; E = Mtb hypoxia rep growth; F = PrP UTR inh; G = Sa ugtP lethal
> CN(C)c1ccc(P(=O)(Nc2ccc([N+](=O)[O-])cc2)N2CCOCC2)c(NC(=O)c2cccs2)c1 (stereo not given)
  A: 2012	B: 4	C: 3.0	D: 7	E: 1	F: -29	G: 3

> CC(=O)Nc1ccc(SCC(C)CN2CCC(O)CCC2=O)cc1 (stereo not given)
  A: ·	B: ·	C: 7.2	D: 13	E: 6	F: ·	G: -2

> COC(=O)CNC(=O)Cc1c(F)cccc1Cl
  A: 8925	B: -4	C: 3.6	D: -2	E: 4	F: -7	G: 4

> CN(c1ccccc1C(=O)Nc1ccc(S(=O)(=O)N2CCCC2)cc1)S(C)(=O)=O
  A: 6129	B: 1	C: 2.3	D: 13	E: 3	F: -44	G: 5

> N#Cc1c(N2CCCCC2)nc(N)c2c(N)nc(SCC(=O)O)cc12
  A: 5070	B: -8	C: 6.4	D: 17	E: 10	F: -18	G: 10

> CCCCCCCCCCCCN1C(CC(=O)OC)c2cc(C(F)(F)F)ccc2S1(=O)=O (stereo not given)
  A: ·	B: ·	C: 1.5	D: 4	E: 7	F: ·	G: 7

> O=C(O)CN1C(=O)/C(=C\c2cccc(OCc3ccc(Cl)cc3)c2)SC1=S
  A: 3268	B: 2	C: -3.5	D: 7	E: 1	F: -19	G: -12

> CCN(CC(=O)Nc1ccc(C#N)c(Cl)c1)CC(=O)NC1CCS(=O)(=O)C1 (stereo not given)
  A: 4391	B: ·	C: 5.7	D: -1	E: 1	F: -6	G: 9

> COC(=O)N/N=C\c1ccc(OC/C=C/c2ccccc2)cc1
  A: 4940	B: -3	C: ·	D: ·	E: ·	F: -9	G: ·

> COc1ccc(/C=N/n2c(N)nc(-c3ccccc3)c2-c2ccccc2)cc1
  A: 3646	B: 2	C: ·	D: ·	E: ·	F: -15	G: ·

Later entries:
Letters: A = Bead autofluor; B = BJeLR viability; C = Sa RN4220 lethal; D = Mtb hypoxia rep; E = Mtb hypoxia rep growth; F = PrP UTR inh; G = Sa ugtP lethal
> O=C(O)c1ccc(NC(=O)c2ccc3c(c2)C(=O)N(c2ccccc2)C3=O)cc1
  A: 3956	B: 8	C: 2.6	D: -7	E: 4	F: -8	G: -4

> CCOC(=O)Cn1c(CN2CCN(C(=O)c3ccco3)CC2)nc2c1c(=O)n(C)c(=O)n2C
  A: 5031	B: 3	C: 2.2	D: 11	E: 8	F: -3	G: 3

> COc1ccccc1CNC(=O)CSc1nnc2c(n1)[nH]c1ccc(F)cc12
  A: 3825	B: -1	C: -2.8	D: 3	E: -6	F: -30	G: 0

> Nc1ccc(-c2nc3nc(N)nc(N)c3nc2-c2ccc(N)cc2)cc1
  A: 5054	B: -4	C: ·	D: ·	E: ·	F: -15	G: ·

> O=C(NC1CC1)C1CC(=O)N(c2ccccc2)C1 (stereo not given)
  A: 5334	B: -3	C: 4.2	D: 0	E: 1	F: -25	G: 9

> O=C1CSC(c2ccccc2)N1c1nc(-c2ccc(Cl)cc2Cl)cs1 (stereo not given)
  A: 10968	B: 2	C: -5.4	D: -1	E: -5	F: -7	G: 14

> CCc1ccc[n+](-c2[nH]c(=O)sc2C=N/N=C(\N)[O-])c1
  A: ·	B: ·	C: 3.7	D: 2	E: 7	F: ·	G: 9

> CCc1ccc(CNCc2cccs2)cc1
  A: 4392	B: ·	C: 12	D: 8	E: 4	F: -19	G: 10

> CN(Cc1ccccc1)C(=O)c1cccc(N2C(=O)NC3CC2(C)Oc2ccccc23)c1 (stereo not given)
  A: 10968	B: 15	C: 4.9	D: 7	E: 13	F: 10	G: 0

> Cc1ccc(NC(=S)N2CCC(NC(=O)c3ccccc3)CC2)cc1
  A: 5603	B: 2	C: 2.3	D: 2	E: 6	F: 4	G: 12

Sorted by formula weight (high to low): some entries from above.
Letters: A = Bead autofluor; B = BJeLR viability; C = Sa RN4220 lethal; D = Mtb hypoxia rep; E = Mtb hypoxia rep growth; F = PrP UTR inh; G = Sa ugtP lethal
> CCOC(=O)Cn1c(CN2CCN(C(=O)c3ccco3)CC2)nc2c1c(=O)n(C)c(=O)n2C
  A: 5031	B: 3	C: 2.2	D: 11	E: 8	F: -3	G: 3

> CN(Cc1ccccc1)C(=O)c1cccc(N2C(=O)NC3CC2(C)Oc2ccccc23)c1 (stereo not given)
  A: 10968	B: 15	C: 4.9	D: 7	E: 13	F: 10	G: 0

> O=C1CSC(c2ccccc2)N1c1nc(-c2ccc(Cl)cc2Cl)cs1 (stereo not given)
  A: 10968	B: 2	C: -5.4	D: -1	E: -5	F: -7	G: 14

> O=C(O)c1ccc(NC(=O)c2ccc3c(c2)C(=O)N(c2ccccc2)C3=O)cc1
  A: 3956	B: 8	C: 2.6	D: -7	E: 4	F: -8	G: -4

> CCc1ccc[n+](-c2[nH]c(=O)sc2C=N/N=C(\N)[O-])c1
  A: ·	B: ·	C: 3.7	D: 2	E: 7	F: ·	G: 9

> CCc1ccc(CNCc2cccs2)cc1
  A: 4392	B: ·	C: 12	D: 8	E: 4	F: -19	G: 10

Further entries.
Letters: A = Bead autofluor; B = BJeLR viability; C = Sa RN4220 lethal; D = Mtb hypoxia rep; E = Mtb hypoxia rep growth; F = PrP UTR inh; G = Sa ugtP lethal
> O=S(=O)(c1ccc(-n2cnnn2)cc1)N1CCN(c2ccccc2F)CC1
  A: 4501	B: 7	C: 4.2	D: -4	E: -9	F: -3	G: 7

> Fc1ccc(-c2cnn3c(-c4ccncc4)ccnc23)cc1
  A: 2586	B: 9	C: -1.5	D: -2	E: -2	F: -82	G: -17

> COc1ccccc1N1CCN(Cc2ccc(Cl)cc2Cl)CC1
  A: 12367	B: 7	C: -2.7	D: 5	E: 6	F: -18	G: 55

> Clc1ccc2c(NN=Cc3cccc(Br)c3)ccnc2c1
  A: ·	B: ·	C: 101*	D: 1	E: 2	F: ·	G: 101*

> CCOc1ccccc1N1CCN(C(=S)NC(=O)C23CC4CC(CC(C4)C2)C3)CC1
  A: 2629	B: -6	C: 5.5	D: 14	E: 2	F: -2	G: 2

> Cc1nc(NC(=O)c2cc3c(C)nn(-c4ccccc4)c3s2)sc1C(=O)Nc1ccccc1
  A: 2843	B: 0	C: -1.3	D: ·	E: ·	F: -17	G: 2

> COc1ccccc1N1CCN(C(=S)Nc2ccc(F)cc2)CC1
  A: 3875	B: -1	C: 1.6	D: 9	E: 3	F: -21	G: 4

> COc1ccc2nc(NC(=O)CSc3nnc(C)s3)sc2c1
  A: 21301*	B: 9	C: 5.3	D: 7	E: 1	F: -77	G: 8

> COC(=O)c1ccc2[nH]c(C)c(CN3CCCC3)c(=O)c2c1
  A: 3678	B: 8	C: -1.1	D: ·	E: ·	F: -9	G: 9

Two of the compounds above, with each value named.
molecule: COc1ccc2nc(NC(=O)CSc3nnc(C)s3)sc2c1
  Bead autofluor: 21301* | BJeLR viability: 9 | Sa RN4220 lethal: 5.3 | Mtb hypoxia rep: 7 | Mtb hypoxia rep growth: 1 | PrP UTR inh: -77 | Sa ugtP lethal: 8

molecule: CCOc1ccccc1N1CCN(C(=S)NC(=O)C23CC4CC(CC(C4)C2)C3)CC1
  Bead autofluor: 2629 | BJeLR viability: -6 | Sa RN4220 lethal: 5.5 | Mtb hypoxia rep: 14 | Mtb hypoxia rep growth: 2 | PrP UTR inh: -2 | Sa ugtP lethal: 2
